# Compound activity: PubChem BioAssay, National Center for Advancing Translational Sciences (NCATS)
# AID923 = qHTS Assay for Allosteric/Competitive Inhibitors of Caspase-1: Spectroscopic Profiling in AFC Spectral Region; compound fluorescence, AFC spectral region (405/520 nm); almost no hit is shown here; AID 923, 2007; 1.1% of 75,000 active; Potency, µM (top dose mostly 57.5 µM), inactives show top-dose fluorescence increase, most hits filed as activators; active = well fitted activation curve with a large enough effect; inconclusive = small, poorly fitted or top-dose-only effect;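 note: potency is the fitted concentration of half-maximal effect; 0% is about no effect; scaled to a free AFC standard on each plate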
#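 Baseline compound fluorescence (AFC region, 405 nm ex/520 nm em) taken from the intercept of kinetic reads with 50 nM caspase-1 and 5 uM Ac-WEHD-AFC; normalized to an on-plate AFC standard curve; compounds titrated up to 57 uM.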
# TSHR agonist = activates the human thyroid stimulating hormone receptor; HEK293-CNG-TSHR cells (CNG channel as cAMP sensor), membrane potential dye, cAMP; Potency, µM (series often up to 57.1 µM), without a hit: at the top dose activation, actives largely listed as activators; 0.48% of 73,000 active; active = well fitted activation curve of enough size with the parental cells flat; inconclusive = any curve in the parental cells; inactive = parental cells flat and receptor cells flat or falling; note: potency is the fitted concentration of half-maximal effect; % of control where 0% means no effect; weak receptor curves with flat parental cells got no call and are not listed
# Target sequence (P16473 whole entry, looked up): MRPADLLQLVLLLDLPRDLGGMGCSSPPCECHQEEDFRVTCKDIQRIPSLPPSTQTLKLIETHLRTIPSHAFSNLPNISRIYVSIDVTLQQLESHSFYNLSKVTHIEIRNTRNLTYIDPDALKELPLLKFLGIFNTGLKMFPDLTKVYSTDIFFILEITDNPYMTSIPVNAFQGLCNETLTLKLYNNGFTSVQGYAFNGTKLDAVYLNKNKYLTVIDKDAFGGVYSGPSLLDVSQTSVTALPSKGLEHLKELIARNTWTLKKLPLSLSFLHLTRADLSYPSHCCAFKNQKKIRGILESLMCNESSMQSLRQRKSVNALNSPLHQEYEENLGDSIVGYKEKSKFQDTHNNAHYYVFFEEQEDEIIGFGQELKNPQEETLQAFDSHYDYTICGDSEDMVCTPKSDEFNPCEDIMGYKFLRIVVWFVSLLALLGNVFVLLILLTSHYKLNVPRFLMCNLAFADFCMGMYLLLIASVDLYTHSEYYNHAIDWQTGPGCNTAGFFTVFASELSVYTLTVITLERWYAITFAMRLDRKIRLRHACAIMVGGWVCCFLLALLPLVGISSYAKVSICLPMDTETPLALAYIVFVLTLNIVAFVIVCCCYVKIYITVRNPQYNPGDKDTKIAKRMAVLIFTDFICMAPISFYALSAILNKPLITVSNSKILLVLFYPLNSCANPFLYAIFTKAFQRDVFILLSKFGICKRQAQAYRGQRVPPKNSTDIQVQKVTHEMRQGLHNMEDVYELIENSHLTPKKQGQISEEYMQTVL
#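 cAMP rise detected as CNG-channel membrane depolarization by fluorescent dye (emission 590 nm), 30 min after compound, following 60 min dye loading containing 100 uM RO 20-1724 at room temperature. Cells: TSHR/CNG HEK 293, with parental CNG HEK 293 as control.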
# Resorufin fluor = resorufin region autofluorescence. Compound fluorescence, resorufin region 547/598 nm, buffer; active compounds read high. max dye-equivalent concentration, M. 0.04% of 59,000 active; active = above 10 nM dye equivalent; inconclusive = 1 to 10 nM; inactive = 1 nM or less; a few of its hits are not listed in these tables; note: highest value over a series up to 38 µM
#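 Compounds in 100 mM Tris buffer, pH 8.0, incubated 15 min at room temperature, then read with 547 nm excitation and 598 nm emission filters. Fluorescence was converted to dye-equivalent concentration using an on-plate six-point resorufin standard curve.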
# A647 autofl = A647 region autofluorescence | Compound fluorescence, A647 channel (570/671 nm), Tris buffer | max dye-equivalent concentration, M | 59,000 tested, under 10 active | AID 592; active means above 1 µM dye equivalent; inconclusive means 0.1 to 1 µM; inactive means 0.1 µM or less;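 note: values scaled relative to a standard on each plate; highest value over a series up to 38 µM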
#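 Compound fluorescence was measured in 100 mM Tris buffer, pH 8.0, after 15 min at room temperature, using 570 nm excitation and 671 nm emission filters. Signal was normalized to a per-plate Alexa 647 standard curve and expressed as dye-equivalent concentration at each compound concentration.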
# A488 fluor = compound autofluorescence in A488 spectral region; compound autofluorescence, A488 spectral region, dye equivalency; active compounds read high; max dye equivalency, M; 0.1% of 59,000 active; AID 591; active = above 10 nM dye equivalent; inconclusive = 1 to 10 nM; inactive = 1 nM or less; about half of its hits are not listed in these tables;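 note: highest value over a series up to 38 µM; compound alone in buffer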
#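 Spectroscopic profiling in the A488 region: compounds in pH 8.0 Tris (100 mM), 15 min RT, CCD imaging with 480 nm excitation and 540 nm emission; responses normalized against A488 dye standards.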
# Active calls of the source: *; i = inactive; ? = inconclusive; nt = no result given; [ ] = remark or other dose. Only part of the results is shown; rates above refer to the full screens.
structure	AID923	TSHR agonist	Resorufin fluor	A647 autofl	A488 fluor
O=C(c1cn[nH]c1)c1cc(F)ccc1O	-0.5%	-4.1%[11.4 µM]	i	1e-09	i
CCn1nnc(NC(=O)COc2ccc(C3CCCCC3)cc2)n1	1.7%	-9.6%	i	9.1e-09	i
CC(NC(=O)Cc1cccs1)C(c1cccs1)N1CCOCC1 (stereo not given)	3.0%	23.5%	i	1.34e-08	i
COC(=O)NC(/C=C/c1ccco1)[C@@]1(C(=O)OC)CCCC1=O (stereo not given in full)	0.6%[11.5 µM]	-13.1%[11.4 µM]	nt	nt	nt
CCN1CCN(Cc2nc3c(c(=O)n(C)c(=O)n3C)n2C(C)C(C)=O)CC1 (stereo not given)	0.2%	-13.2%	i	2.17e-08	i
Cc1cccc(-c2nc(CN3CCCC(C(=O)NC4CCCC4)C3)c(C)o2)c1 (stereo not given)	-1.6%	?	i	3.4e-09	i
COc1ccccc1OCCCc1c(C)n[nH]c1C	0.0%	3.0%	nt	nt	nt
COc1oc(-c2ccccc2)nc1C(F)(F)F	-0.1%	-86.0%[inhibitor]	i	3.75e-08	i
COc1ccc(C(=O)NCC(c2cccnc2)N2CCN(c3ccc(F)cc3)CC2)cc1OC (stereo not given)	-1.4%	-0.3%[11.4 µM]	nt	nt	nt
CCOC(=O)Cc1cc(=O)n2[nH]c(C)c(-c3ccccc3)c2n1	1.2%	-2.1%	i	3.03e-08	i
CC(=O)Nc1ccc(S(=O)(=O)N2CCCC2C(=O)O)cc1 (stereo not given)	0.9%	-14.2%	nt	nt	nt
Cc1cc(=O)n2ncnc2n1COCCO	0.8%	-0.2%	nt	nt	nt
CC(C)(C)NC(=O)C(OC(=O)Cn1nnc(-c2ccc(F)cc2)n1)c1ccncc1 (stereo not given)	-0.4%	0.8%	i	1.78e-08	i
O=c1sc2ccccc2n1CCOc1ccccc1	-0.1%	?	i	2.78e-08	i
COC(=O)CNC(=O)C1(CC(C)C)C=CCN1C(C)=O (stereo not given)	1.9%	3.3%	nt	nt	nt
O=C(Cn1cnc2ccccc2c1=O)Nc1ccc2c(c1)OCCO2	-0.2%	3.9%	i	7.2e-09	i
CC1CCCCC1NC(=O)c1cc2c(s1)CS(=O)(=O)C2 (stereo not given)	0.0%	14.3%[11.4 µM]	i	1e-09	i
Cc1cccc(NC(=O)CSc2nnc(CCCCCNC(=O)OC(C)(C)C)o2)c1C	-1.4%	?	i	6.2e-09	i
COC(=O)C(F)(F)Sc1c(C)[nH]c2ccccc12	-1.4%	-2.3%[11.4 µM]	i	1e-09	i
Cc1ccc(-c2nc(CSCC(=O)NCCN3CCN(Cc4ccccc4)CC3)c(C)o2)cc1	0.5%	?	i	2.28e-08	i
CCOC(=O)C1=C(C)NC(=O)NC1c1cccnc1 (stereo not given)	-1.3%	-2.8%[11.4 µM]	nt	nt	nt
COC(=O)c1ccc(S(=O)(=O)NCc2cccc(OC)c2)n1C	-1.4%	-1.9%	i	1e-09	i
CCOc1ccc2[nH]c(=O)c(CN(CCOC)C(=O)N3CCOCC3)cc2c1	1.3%	-0.1%	i	3.4e-09	i
COC(=O)CSc1nc2cc3c(cc2cc1C#N)OCO3	2.7%	3.1%	i	6.33e-08	i
Cc1cc(NC(=O)c2cc(-c3ccccc3)on2)n(-c2ccccc2)n1	-1.9%	20.8%	i	1.71e-08	i

# Additional compounds:
structure	AID923	TSHR agonist	Resorufin fluor	A647 autofl	A488 fluor
O=C(CC(c1ccccc1O)N1CCCCC1)N1CCCCC1 (stereo not given)	-2.1%	10.1%[11.4 µM]	nt	nt	nt
O=C(Oc1ccc2c(c1)OCO2)c1ccc(Br)c(S(=O)(=O)N2CCOCC2)c1	-2.6%	nt	i	1.38e-08	i
O=C(NC1CCN(Cc2ccccc2)CC1)c1ccc(-n2c(=O)c(=O)[nH]c3ccccc32)cc1	16.0%	?	nt	nt	nt
COCC(=O)NC1CCN(C(=O)NCc2ccccc2)CC1	1.3%	-0.9%	i	1.9e-09	i
CCCc1ncc(C(O)c2ccc(OC)cc2)n1C (stereo not given)	0.3%	8.8%	nt	nt	nt
CCC(=O)N1CCc2cc(S(=O)(=O)NCCC(=O)Nc3ccccc3C)ccc21	-0.6%	3.1%	i	1e-09	i
O=C(NCCc1ccccc1)C1CCN(S(=O)(=O)c2cccnc2)CC1	2.4%	-1.0%	nt	nt	nt
Cc1c(C(=O)N2CCCC2)oc2c1-c1[nH]ncc1CC2	0.8%	10.3%	nt	nt	nt
C/C(=N/NS(=O)(=O)c1ccc(C)cc1)P(=O)(O)O	-0.2%[11.5 µM]	2.8%[11.4 µM]	i	1e-09	i
COc1ccccc1-c1ccc2ncnc(NCc3ccccc3)c2c1	2.1%	?	i	1.85e-08	i
O=C(O)C(Cc1cccs1)C(=O)O	-0.4%[11.5 µM]	0.6%[11.4 µM]	i	3.23e-08	i
CC(C)(C#CCN1CCCC1)OCCC#N	-0.1%	0.1%	nt	nt	nt
COC(=O)[C@@]1(Cc2ccc(OC)cc2)[C@H]2c3cc(C(=O)N4CCCC4)n(CCc4c[nH]c5ccc(O)cc45)c3C[C@H]2CN1C(=O)c1ccccc1	-1.1%	4.1%	nt	nt	nt
CCn1cc(C(=O)OCC(=O)OC2CC(C)CCC2C(C)C)c(=O)c2ccc(C)nc21 (stereo not given)	-4.1%	?	i	1e-09	i
CC(=O)c1ccc(N2CCN(C(=O)c3cc(C)on3)CC2)cc1	0.9%	-6.2%	i	2.8e-09	i
Cc1ccc(NS(=O)(=O)c2cccc(C(=O)O)c2)c(C)c1	-0.8%	-1.3%	i	1e-09	i
O=C(CCN1CCN(c2ccc(Cl)cc2)CC1)Nc1ccccc1F	-1.9%	?	i	3.54e-08	i
CS(=O)(=O)N1CCC(C(=O)Nc2ccc(Cl)c(C(F)(F)F)c2)CC1	-1.2%	-17.8%	i	3.11e-08	i
COc1ccccc1NC(=O)C(O)C(O)C(=O)Nc1ccccc1OC (stereo not given)	-2.2%	-2.5%	i	3e-09	i
O=C(CSc1ccc(-c2ccc(F)cc2)nn1)N1CCCCC1	1.0%	-14.4%	i	1e-09	i
Cc1cc(NC(=O)Cn2nc(C(F)(F)F)c3c2CCCC3)no1	-0.9%	-1.2%	i	1.67e-08	i
Cc1cccc(-n2nnc(C(=O)NCc3ccc4c(c3)OCO4)c2N)c1	-0.2%	4.1%	i	1e-09	i
O=C(CCNS(=O)(=O)c1cccs1)NCc1ccco1	1.0%	1.9%[11.4 µM]	i	1e-09	i
c1ccc(-c2noc(-c3ccc4ccccc4c3)n2)cc1	1.3%	-1.3%	i	5.7e-09	i
Cc1cc2ccccc2c(=O)n1CC(=O)NCC(=O)N1CCN(c2ccccc2F)CC1	-1.0%	-2.2%	i	4.89e-08	i

# Part of the list above, with values under each structure.
# Below each SMILES: AID923 | TSHR agonist | Resorufin fluor | A647 autofl | A488 fluor
> Cc1c(C(=O)N2CCCC2)oc2c1-c1[nH]ncc1CC2
→ 0.8% | 10.3% | nt | nt | nt
> Cc1ccc(-c2nc(CSCC(=O)NCCN3CCN(Cc4ccccc4)CC3)c(C)o2)cc1
→ 0.5% | ? | i | 2.28e-08 | i
> CC(C)(C)NC(=O)C(OC(=O)Cn1nnc(-c2ccc(F)cc2)n1)c1ccncc1 (stereo not given)
→ -0.4% | 0.8% | i | 1.78e-08 | i
> O=C(O)C(Cc1cccs1)C(=O)O
→ -0.4%[11.5 µM] | 0.6%[11.4 µM] | i | 3.23e-08 | i

# Additional entries follow.
structure	AID923	TSHR agonist	Resorufin fluor	A647 autofl	A488 fluor
COC(=O)[C@@]1(Cc2ccc(OC)cc2)[C@H]2c3cc(C(=O)N4CCCC4)n(Cc4ccc(OC)c(OC)c4)c3C[C@H]2CN1C(=O)c1ccccc1	1.1%	?	nt	nt	nt
Cc1cc(N2CCN(c3ccccc3)CC2)n2c(n1)nc1ccccc12	3.3%	?	i	4e-09	i
CCOC(=O)Cc1cn2c(=O)cc(CSCC(=O)Nc3ccc(C)c(C)c3)nc2s1	1.1%	-0.5%	i	1e-09	i
Cc1nnc(SCC(=O)Nc2ccccc2NC(=O)CSc2nnc(C)s2)s1	0.0%	2.9%	i	3.2e-09	i
Cc1cc(C)cc(Nc2ncc3c(n2)CC(c2ccco2)CC3=O)c1 (stereo not given)	2.1%	20.9%	i	1.34e-08	i
COc1ccccc1Nc1nc(-c2cccs2)cs1	2.3%	0.6%	nt	nt	nt
COCCn1c(SCC(=O)c2cccc(OC)c2)nnc1-c1ccco1	-1.1%	1.1%	i	1e-09	i
c1ccc(CNc2nc(-c3ccoc3)nc3ccccc23)cc1	3.2%	?	i	1e-09	i
CCOC(=O)c1sc(=S)n(-c2cc(OC)ccc2OC)c1N	0.1%	-3.1%[11.4 µM]	i	1e-09	i
C=CCNC(=O)C1CC(=O)N(c2ccc(OCC(=O)Nc3cccc(OC)c3)cc2)C1 (stereo not given)	-0.5%	-2.3%	i	2.26e-08	i
c1ccc2c(c1)OCC(c1nn3cnnc3s1)O2 (stereo not given)	-0.8%	-2.6%	i	4e-09	i
CCc1c(C)sc(NC(=O)C2CCCCC2C(=O)O)c1C(N)=O (stereo not given)	6.1%	4.1%	nt	nt	nt
O=C(Nc1ccc(S(=O)(=O)N2CCOCC2)cc1)c1ccc(Cl)s1	-0.7%	-6.8%	i	1.5e-09	i
CCN(CCCNC(=O)CNC(=O)Cn1cnc2ccccc2c1=O)c1ccccc1	0.0%	-2.3%[11.4 µM]	i	1e-09	i
O=C(O)CCC/C=C\C[C@H]1[C@@H](/C=C\[C@@H](O)C2Cc3ccccc3C2)[C@H](F)C[C@H]1O	nt	6.5%	i	6.2e-09	i
CCC(=O)Nc1nc2ccc3nc(C)sc3c2s1	2.6%	-5.8%	nt	nt	nt
c1ccc(C(c2nnnn2Cc2cccs2)N2CCN(C3CCCC3)CC2)cc1 (stereo not given)	-1.8%	1.7%	i	1.78e-08	i
COc1ccc2c(c1OC)CN(C)CCc1cc3c(cc1C(O)C2)OCO3 (stereo not given)	-2.5%	14.6%	i	1.89e-08	i
COC(=O)c1cc(OC)c(OC)cc1NC(=O)C1CCCO1 (stereo not given)	0.9%	-3.9%	nt	nt	nt
CCOC(=O)C1=C(C)NC(C)=C(C(=O)OC)C1c1cccc([N+](=O)[O-])c1 (stereo not given)	nt	nt	i	1.77e-08	i
O=C(Nc1ccc2c(c1)CCC2)C1CCCO1 (stereo not given)	-1.9%	4.9%	i	5e-09	i
Cc1ccc(S(=O)(=O)N(C)c2nonc2C)cc1	-0.6%	4.4%	i	5.8e-09	i
Cc1ccc(S(=O)(=O)N2C(=O)CCC2C(=O)N2CCN(C)CC2)cc1 (stereo not given)	1.4%	?	i	1e-09	i
O=C(OC(C(=O)NCc1cccs1)c1ccccn1)c1cccs1 (stereo not given)	-0.9%	11.9%	i	2.86e-08	i
COc1ccc(CN2CCCC(C(=O)N(C)Cc3ccccc3)C2)cc1OC (stereo not given)	2.5%	9.9%	i	1e-09	i

# Next compounds:
structure	AID923	TSHR agonist	Resorufin fluor	A647 autofl	A488 fluor
Cc1ccc(Cn2c(SCC(=O)Nc3cccc(C)n3)nc3c2c(=O)n(C)c(=O)n3C)cc1	0.0%	3.8%	i	5.62e-08	i
O=c1oc2cc(N=Cc3ccc4c(c3)OCO4)ccc2c2ccccc12	-2.8%[11.5 µM]	6.4%[11.4 µM]	i	1e-09	i
COCC(=O)N1CCC[C@@]2(CCN(C(=O)Nc3cccc(F)c3)C2)C1	0.6%	-1.3%	i	2.2e-09	i
CC(=O)c1c(C)oc2ccc(NS(=O)(=O)c3ccc(O)c(C(=O)O)c3)cc12	0.9%	12.2%	i	1.55e-08	i
